Screening results deposited in PubChem BioAssay by National Center for Advancing Translational Sciences (NCATS).
CtBP-E1A inh – blocks the CtBP interaction with E1A; AlphaScreen GST-E1A/His-CtBP binding, 1536-well; active compounds read low; control for the full effect not named in the record; activity change, % (concentration not given with the values); hit rate 0.49% among 340,000; AID 651724; in the data active means activity change below about -65%; inconclusive means about -30% to -65%; inactive means above about -30%; further: on the % scale 0 is the no-effect control and ±100 the full control effect
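GST-E1A and His-tagged CtBP (125 nM each as 5X stock) were preincubated with pin-transferred compound for 2 h at 37 °C in the dark, then glutathione donor and nickel acceptor beads were added for 1 h before AlphaScreen reading.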
PINK1 expr mod – modulators of PINK1 expression; PINK1 immunofluorescence, high-content cytometry, 24 h; Potency, µM (series often up to 76.6 µM), for inactives: at the top dose activation (PINK1 increase), most hits filed as activators; hit rate 0.2% among 410,000; AID 624263; active = well fitted activation curve with a large enough effect; inconclusive = small, poorly fitted or top-dose-only effect; inactive = flat fitted curve, though single readings scatter; cell line not stated here;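 further: potency means the concentration at half of the fitted maximal effect; % of control where 0% means no effect; nearly all actives have a fitted effect of over 65% in size; a mitochondrial uncoupler was the plate control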
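A stable cell line was treated with compounds at 5 concentrations for 24 hours, with CCCP as control. PINK1 levels and mitochondrial localization were measured by immunofluorescence with mitochondrial, cell and nuclear markers after fixation, read by laser-scanning cytometry.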
D2 agonist – activates the human D2 dopamine receptor; hit rate 0.084% among 360,000; DiscoveRx PathHunter D2 beta-arrestin, luminescence, 90 min; 100% = 57 uM dopamine signal; P14416; activation, % (no concentration beside the values); in the data active = activation above about 40%; inconclusive = about 15% to 40%; inactive = below about 15%; further: compound concentration not given in the record; the text of the record calls up to 30% inactive
Target sequence (P14416 whole entry, looked up): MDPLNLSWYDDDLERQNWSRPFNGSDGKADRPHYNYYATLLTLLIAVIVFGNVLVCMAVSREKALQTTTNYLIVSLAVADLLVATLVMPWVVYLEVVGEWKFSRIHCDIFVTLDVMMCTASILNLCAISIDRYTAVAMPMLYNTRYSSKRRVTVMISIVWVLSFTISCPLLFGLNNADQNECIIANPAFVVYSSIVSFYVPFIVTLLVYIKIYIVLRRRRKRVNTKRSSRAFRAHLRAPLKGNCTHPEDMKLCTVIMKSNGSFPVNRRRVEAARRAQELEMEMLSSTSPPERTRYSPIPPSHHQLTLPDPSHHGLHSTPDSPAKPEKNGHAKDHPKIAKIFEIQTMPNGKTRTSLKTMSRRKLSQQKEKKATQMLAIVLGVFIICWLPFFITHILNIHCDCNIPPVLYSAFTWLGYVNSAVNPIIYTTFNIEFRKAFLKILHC
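DiscoveRx PathHunter D2 beta-arrestin cells (2,100/well) attached overnight, then compound-stimulated 90 min at 37 C in HBSS/10 mM HEPES/0.1% Tween-20 buffer; beta-galactosidase complementation read by luminescence after 1 h at ambient temperature. Dopamine 57 uM final (EC100) as control.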
Six1-Eya2 blk – inhibitors of human Six1/Eya2 interaction; Q15475+O00167; AlphaScreen GST-Six1/His-Eya2 binding, biochemical; active compounds read low; control for the full effect not named in the record; activity change, % (concentration not given with the values); hit rate 0.56% among 360,000; in the data active = activity change below about -65%; inconclusive = about -30% to -65%; inactive = above about -30%; further: on the % scale 0 is the no-effect control and ±100 the full control effect
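Six1/Eya2 binding was read as AlphaScreen signal after compounds were pinned into GST-Six1 plus His-tagged Eya2 (5X stock 250/500 nM) in pH 8.0 Tris/NaCl/TCEP buffer, beads added, then incubated 1 h, 37 C, dark.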
TRPML1 blocker – human mucolipin-1 channel inhibition; Q9GZU1; TRPML1-inducible cells, Ca2+ dye fluorescence, FDSS; active compounds read low; inhibition of EC80 agonist-evoked calcium signal; activity change, negative = inhibition, % (concentration not given with the values); hit rate 0.02% among 390,000; in the data active means activity change below about -50%; inconclusive means about -30% to -50%; inactive means above about -30%;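 further: stimulus is agonist 54-4 at its EC80 concentration; on the % scale 0 is the no-effect control and ±100 the full control effect; the text of the record puts the active cut at -80%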
Target sequence (Q9GZU1 whole entry, looked up): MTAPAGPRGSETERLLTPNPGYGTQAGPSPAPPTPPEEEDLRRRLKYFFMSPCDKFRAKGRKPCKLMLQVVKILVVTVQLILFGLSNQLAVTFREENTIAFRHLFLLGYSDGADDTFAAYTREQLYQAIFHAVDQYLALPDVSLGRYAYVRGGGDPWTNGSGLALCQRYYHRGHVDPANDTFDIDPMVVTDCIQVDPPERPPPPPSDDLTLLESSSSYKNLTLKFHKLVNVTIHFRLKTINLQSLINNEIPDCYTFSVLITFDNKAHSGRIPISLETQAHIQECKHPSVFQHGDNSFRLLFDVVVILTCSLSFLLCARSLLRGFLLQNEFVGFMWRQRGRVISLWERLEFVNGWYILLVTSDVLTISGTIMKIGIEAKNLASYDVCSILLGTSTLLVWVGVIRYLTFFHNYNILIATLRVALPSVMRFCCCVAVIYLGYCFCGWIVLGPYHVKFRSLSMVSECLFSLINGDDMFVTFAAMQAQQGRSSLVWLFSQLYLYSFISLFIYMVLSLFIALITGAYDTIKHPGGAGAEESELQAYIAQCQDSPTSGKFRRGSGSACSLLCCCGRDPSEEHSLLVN
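TRPML1-DL cells, Tet-induced overnight (~16 h, 37 °C) at 1,500 cells/well, were loaded with Ca8 no-wash dye plus quencher for 45-90 min at room temperature. Compounds were pinned during FDSS kinetic reading; agonist 54-4 at EC80 (4 uM final) then added.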
TRPML1 agonist – activates the human TRPML1 channel; TRPML1-expressing cells, Ca2+ dye fluorescence, FDSS; host cell line not named in the record; reference of the full effect not given here; activation, % (no concentration beside the values); hit rate 0.12% among 410,000; in the data active = activation above about 50%; inconclusive = about 30% to 50%; inactive = below about 30%; further: 0% is about no effect; the text of the record puts the active cut at 80%
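Calcium fluorescence on an FDSS kinetic reader gave the read-out. Tet-induced TRPML1-DL cells were plated overnight, dye-loaded (Ca8 with quencher, 45-90 min, room temperature, dark), then read 110 s after compound addition, and again 110 s after 4uM final 54-4 (EC80).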
* = called active by the depositor; [ ] = remark or other dose.

Screening C/C(CC(=O)Nc1ccccn1)=N\NC(=O)c1cnccn1 returned PINK1 expr mod 0.7%, D2 agonist -5.2, Six1-Eya2 blk -8, TRPML1 blocker -2 and TRPML1 agonist -0.4.
For COc1cccc(/C=N/c2nc3ccccc3[nH]2)c1O the results were PINK1 expr mod 0.9%, D2 agonist -3.8, Six1-Eya2 blk 3, TRPML1 blocker -2 and TRPML1 agonist -0.1.
Screening CCOc1ccc(NC(=S)NC(=O)C2CCCC2)cc1 returned CtBP-E1A inh -5, PINK1 expr mod 1.2%, D2 agonist -1.8, Six1-Eya2 blk -7, TRPML1 blocker -5 and TRPML1 agonist 0.3.
`COc1cc(Br)c(-c2sc(Nc3ccccc3)n[n+]2-c2ccc(F)cc2)cc1OC` gave PINK1 expr mod -0.3%, D2 agonist -1.5, Six1-Eya2 blk -13, TRPML1 blocker 8 and TRPML1 agonist 1.0.
`COc1cc([N+](=O)[O-])ccc1Nc1nc(C)cc(C)n1` gave CtBP-E1A inh -3, PINK1 expr mod 3.5%, D2 agonist -3.8, Six1-Eya2 blk -5, TRPML1 blocker -8 and TRPML1 agonist -0.9.
For CC1CCN(CCCNC(=O)c2ccc(CS(=O)(=O)Cc3ccc(Cl)cc3)o2)CC1 the results were PINK1 expr mod 0.0%, D2 agonist -7.7, Six1-Eya2 blk 7, TRPML1 blocker -3 and TRPML1 agonist 1.3.
For CCOC(=O)COc1ccc(S(=O)(=O)N2CCN(c3ccc(F)cc3)CC2)cc1 the results were CtBP-E1A inh -3, PINK1 expr mod 10%[38.3 µM], D2 agonist -0.3, Six1-Eya2 blk -8, TRPML1 blocker -6 and TRPML1 agonist 0.1.
Cc1ccc(CSc2nc3c(c(=O)[nH]2)C(c2ccncc2)C2=C(CCCC2=O)N3)cc1 (centres undefined) was read as CtBP-E1A inh -9, PINK1 expr mod 7.1%, D2 agonist -1.9, Six1-Eya2 blk -8, TRPML1 blocker -7 and TRPML1 agonist 0.9.
CCc1nc2ccccc2c(C(=O)OCC(=O)NCCCN2CCCC2=O)c1C was read as CtBP-E1A inh 0, PINK1 expr mod 0.8%, D2 agonist -1.2, Six1-Eya2 blk -3, TRPML1 blocker -4 and TRPML1 agonist -0.3.
`CN(C)C(=S)SCC(=O)Nc1cccc(C(F)(F)F)c1` gave CtBP-E1A inh 0, PINK1 expr mod -0.4%, D2 agonist -3.2, Six1-Eya2 blk 1, TRPML1 blocker -21 and TRPML1 agonist -0.4.

The closing 3 entries of the section above are carried over, then new ones follow.
Cc1ccc(CSc2nc3c(c(=O)[nH]2)C(c2ccncc2)C2=C(CCCC2=O)N3)cc1 (centres undefined) was read as CtBP-E1A inh -9, PINK1 expr mod 7.1%, D2 agonist -1.9, Six1-Eya2 blk -8, TRPML1 blocker -7 and TRPML1 agonist 0.9.
CCc1nc2ccccc2c(C(=O)OCC(=O)NCCCN2CCCC2=O)c1C was read as CtBP-E1A inh 0, PINK1 expr mod 0.8%, D2 agonist -1.2, Six1-Eya2 blk -3, TRPML1 blocker -4 and TRPML1 agonist -0.3.
`CN(C)C(=S)SCC(=O)Nc1cccc(C(F)(F)F)c1` gave CtBP-E1A inh 0, PINK1 expr mod -0.4%, D2 agonist -3.2, Six1-Eya2 blk 1, TRPML1 blocker -21 and TRPML1 agonist -0.4.
O=C(c1ccccc1Cl)N1CCCC(c2nc3c(nnn3Cc3ccc(F)cc3F)c(=O)[nH]2)C1 (centres undefined) was read as PINK1 expr mod 0.1%, TRPML1 blocker 33 and TRPML1 agonist 1.0.
`O=C(NCC(c1ccc(F)cc1)N1CCOCC1)c1ccc(OCc2ccccc2)cc1` (centres undefined) gave CtBP-E1A inh 0, PINK1 expr mod -3.0%, D2 agonist -1.4, Six1-Eya2 blk -7, TRPML1 blocker 2 and TRPML1 agonist 1.3.
`Cc1cc(C)c(S(=O)(=O)c2ccccc2)c(OC(=O)c2ccc(Cl)cc2Cl)n1` gave CtBP-E1A inh 9, PINK1 expr mod 1.8%, D2 agonist -1.7, Six1-Eya2 blk 1, TRPML1 blocker 4 and TRPML1 agonist 0.0.
Screening Cc1nc(-c2ccccc2)sc1C(=O)/C=C/N(C)C returned PINK1 expr mod -0.7%, D2 agonist 0.4, Six1-Eya2 blk -2, TRPML1 blocker -10 and TRPML1 agonist 0.0.
For CCC1(c2ccc(F)cc2)NC(=O)N(CC(=O)NC2CCCCCC2)C1=O (centres undefined) the results were CtBP-E1A inh 2, PINK1 expr mod -0.2%, D2 agonist -1.1, Six1-Eya2 blk 1, TRPML1 blocker 13 and TRPML1 agonist -0.2.
Screening CCCOc1ccc(N2C(=O)CC(N(C(=O)c3ccco3)c3ccc(OCCC)cc3)C2=O)cc1 (centres undefined) returned CtBP-E1A inh 11, PINK1 expr mod 13%[38.3 µM], D2 agonist -2.4, Six1-Eya2 blk 3, TRPML1 blocker 58 and TRPML1 agonist 0.1.
CCc1ccccc1Nc1nn2c(=O)c3ccc(C(=O)NCc4ccccn4)cc3nc2s1 was read as CtBP-E1A inh -79*, PINK1 expr mod 16%, D2 agonist 4.0, Six1-Eya2 blk inconclusive, TRPML1 blocker -2 and TRPML1 agonist 1.9.
CCCCCCN1CCN(C2CN(Cc3ccccc3)S(=O)(=O)C2)CC1 (centres undefined) was read as CtBP-E1A inh 0, PINK1 expr mod -0.7%, D2 agonist -4.7, Six1-Eya2 blk -1 and TRPML1 agonist -0.6.
c1csc(CNc2nc(-c3cccs3)nc3ccccc23)c1 was read as CtBP-E1A inh 5, PINK1 expr mod 5.2%, D2 agonist -3.2, Six1-Eya2 blk -8, TRPML1 blocker 28 and TRPML1 agonist -0.1.
Cc1cc(C(=O)O)c(CSCc2cc(C(=O)O)oc2C)o1 was read as CtBP-E1A inh 2, PINK1 expr mod 0.5%[38.3 µM], D2 agonist -1.9, Six1-Eya2 blk 1, TRPML1 blocker 10 and TRPML1 agonist 0.6.
`Cc1cc(C)c2c(=O)cc(C(F)F)oc2c1` gave CtBP-E1A inh 6, PINK1 expr mod 1.9%, D2 agonist -2.2, Six1-Eya2 blk 1, TRPML1 blocker 6 and TRPML1 agonist -0.9.
`Cc1ccc(S(=O)(=O)c2nc(-c3ccc(F)cc3)oc2SCC(=O)NCC2CCCO2)cc1` (centres undefined) gave CtBP-E1A inh 1, PINK1 expr mod 9.2%, D2 agonist -0.6, Six1-Eya2 blk 1, TRPML1 blocker 1 and TRPML1 agonist -0.4.
For CCc1ccc(NC(=O)c2ccc(CNS(=O)(=O)c3ccc4c(c3)C(C)(C)C(=O)N4C)cc2)cc1 the results were PINK1 expr mod 0.4%, TRPML1 blocker 19 and TRPML1 agonist 1.3.
`COc1cc2c(cc1OC)CN(c1nc(CN3CCCCC3)nc3sc4c(c13)CCCC4)CC2` gave CtBP-E1A inh -17, PINK1 expr mod 1.2%, D2 agonist 1.3, Six1-Eya2 blk -20, TRPML1 blocker -11 and TRPML1 agonist -0.1.
For COc1ccc(CC(=O)Nc2sccc2C#N)cc1S(=O)(=O)N1CCOCC1 the results were CtBP-E1A inh -2, PINK1 expr mod -1.4%, D2 agonist -3.1, Six1-Eya2 blk -16, TRPML1 blocker -10 and TRPML1 agonist -0.2.
CCN1CCCC1CNC(=O)c1ccc(Sc2ccc(F)cc2)c([N+](=O)[O-])c1 (centres undefined) was read as CtBP-E1A inh 1, PINK1 expr mod 5.5%, D2 agonist -4.6, Six1-Eya2 blk -2, TRPML1 blocker -4 and TRPML1 agonist 0.2.
For Oc1cc(CNC2CCCCC2)c(O)cc1CNC1CCCCC1 the results were CtBP-E1A inh -12, PINK1 expr mod 3.9%, D2 agonist 3.5, Six1-Eya2 blk -7, TRPML1 blocker -6 and TRPML1 agonist 0.1.
`NC(N)=NN=Cc1ccnc2ccccc12` gave CtBP-E1A inh 1, PINK1 expr mod 1.0%, D2 agonist -4.1, Six1-Eya2 blk 1 and TRPML1 agonist -0.3.
COc1cc(C2NC(=S)NC(C)=C2C(=O)OC(C)C)ccc1OC(C)C (centres undefined) was read as CtBP-E1A inh 3, PINK1 expr mod -1.5%, D2 agonist -2.6, Six1-Eya2 blk -3, TRPML1 blocker 2 and TRPML1 agonist 0.4.
`CCCCn1c(N)c(N(CCOC)C(=O)C2CCN(S(=O)(=O)c3ccc(F)cc3)CC2)c(=O)[nH]c1=O` gave CtBP-E1A inh 1, PINK1 expr mod 4.9%, D2 agonist -1.7, Six1-Eya2 blk 4, TRPML1 blocker -15 and TRPML1 agonist -0.2.
For O=C(Cc1ccccc1)NNC1CC(=O)N(c2ccc(Oc3ccccc3)cc2)C1=O (centres undefined) the results were CtBP-E1A inh 4, PINK1 expr mod 1.5%, D2 agonist 0.8, Six1-Eya2 blk 5, TRPML1 blocker -5 and TRPML1 agonist -0.9.
Screening Cc1ccc(NC(=S)N2CCCC(c3ccccc3)=N2)cc1 returned CtBP-E1A inh 3, PINK1 expr mod 3.6%, D2 agonist inconclusive, Six1-Eya2 blk 4, TRPML1 blocker 15 and TRPML1 agonist 0.3.
`CCCOc1ccc(N2C(=O)CC(SC(=NCC)NCC)C2=O)cc1` (centres undefined) gave CtBP-E1A inh 17, PINK1 expr mod 5.8%, D2 agonist 0.5, Six1-Eya2 blk 15, TRPML1 blocker -12 and TRPML1 agonist 1.8.
CCOC(=O)COc1cc(=O)n(CC)c2ccccc12 was read as PINK1 expr mod -0.5%, D2 agonist -1.5, Six1-Eya2 blk 9, TRPML1 blocker -1 and TRPML1 agonist -0.3.
For CC(=O)NCCNC(=O)c1oc2ccccc2c1CSc1ncn[nH]1 the results were CtBP-E1A inh 0, PINK1 expr mod -0.3%, D2 agonist -5.9, Six1-Eya2 blk 0, TRPML1 blocker -11 and TRPML1 agonist -0.3.
`COc1cccc(N(CC(=O)N2CCC(C)CC2)S(=O)(=O)c2ccc(C)cc2)c1` gave PINK1 expr mod 1.4%, TRPML1 blocker 31 and TRPML1 agonist -0.1.
Screening Oc1c(Cl)cccc1C=Nc1cc(C(F)(F)F)ccc1N1CCCC1 returned CtBP-E1A inh -15, PINK1 expr mod -0.3%, D2 agonist -10, Six1-Eya2 blk -15, TRPML1 blocker -1 and TRPML1 agonist -0.3.
For CCOC(=O)CSc1nnc(CNC(=O)c2ccc(OC)cc2)n1Cc1ccccc1 the results were CtBP-E1A inh 5, PINK1 expr mod -0.6%, D2 agonist 2.7, Six1-Eya2 blk 5, TRPML1 blocker 0 and TRPML1 agonist 0.7.
`CN1CCN(c2ccc(NC(=O)COc3ccc4ccccc4c3)cc2)CC1` gave CtBP-E1A inh -2, PINK1 expr mod 14%, D2 agonist -2.8, Six1-Eya2 blk 10, TRPML1 blocker 15 and TRPML1 agonist -0.5.
C=COCCn1c(=N)n(CCC)c2ccccc21 was read as CtBP-E1A inh 6, PINK1 expr mod 0.5%, D2 agonist -3.6, Six1-Eya2 blk 4, TRPML1 blocker -4 and TRPML1 agonist -0.7.
For CCOC(=O)Cc1nnc(NC(=O)CSc2ccccc2)s1 the results were CtBP-E1A inh -1, PINK1 expr mod -1.2%, D2 agonist -0.8, Six1-Eya2 blk 12, TRPML1 blocker 33 and TRPML1 agonist 0.8.

Compounds as they come; any-hit rate near 1%.
